gsp ag: qHTS for Agonist of gsp, the Etiologic Mutation Responsible for Fibrous Dysplasia/McCune-Albright Syndrome: qHTS; gsp mutant cells, cAMP HTRF, 30 min; control for the full effect not named in the record; Potency, µM (highest dose often 76.9 µM), without a hit: at the top dose activation (cAMP increase), hits mostly activators; hit rate 0.13% among 340,000; active = well fitted activation curve with a large enough effect; inconclusive = small, poorly fitted or top-dose-only effect, or another doubt; inactive = no such curve, though single readings can be large or run the other way; cell line not stated here;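 also: phosphodiesterase inhibitor Ro 20-1724 added with compounds to block cAMP breakdown; potency is read from the fitted curve at half-maximal effect; nearly all actives have a fitted effect of over 60% in size; about a fifth of the inactives were tested at one dose only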
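Cells stably selected in G418 were plated at 2000/well, grown 16-24 hr, then given compounds in DMSO with the PDE inhibitor […] (300 uM solution added) for 30 min at 37C; cAMP was read by HTRF.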
Menin MLL FP FL: qHTS Assay for Inhibitors Targeting the Menin-MLL Interaction in MLL Related Leukemias: Competition With Fluorescein Labeled MLL-derived Peptide. Fluorescence polarization, fluorescein-MLL peptide displacement from menin. FP activity change, % at 61.4 µM. 290,000 tested, under 10 active. AID 1766, 2009; inconclusive = falling polarisation curve, or a change in total fluorescence; inactive = total fluorescence flat and polarisation flat or rising; no compound was filed as active; the % refers to the polarisation; negative = inhibition;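 also: % of control where 0% means no effect; inhibitors lower the polarisation; unlabelled MLL peptide was the positive control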
TRPML1 agonist: qHTS for Agonists of the Human Mucolipin Transient Receptor Potential 1 (TRPML1); AID 624414, 2012; activation, % (test concentration not listed); Mucolipin-1 (Homo sapiens), Q9GZU1; TRPML1-expressing cells, Ca2+ dye fluorescence, FDSS; host cell line not named in the record; reference of the full effect not given here; hit rate 0.12% among 410,000; in the data active = activation above about 50%; inconclusive = about 30% to 50%; inactive = below about 30%; also: 0% is about no effect; the text of the record puts the active cut at 80%
Target sequence (Q9GZU1 whole entry, looked up): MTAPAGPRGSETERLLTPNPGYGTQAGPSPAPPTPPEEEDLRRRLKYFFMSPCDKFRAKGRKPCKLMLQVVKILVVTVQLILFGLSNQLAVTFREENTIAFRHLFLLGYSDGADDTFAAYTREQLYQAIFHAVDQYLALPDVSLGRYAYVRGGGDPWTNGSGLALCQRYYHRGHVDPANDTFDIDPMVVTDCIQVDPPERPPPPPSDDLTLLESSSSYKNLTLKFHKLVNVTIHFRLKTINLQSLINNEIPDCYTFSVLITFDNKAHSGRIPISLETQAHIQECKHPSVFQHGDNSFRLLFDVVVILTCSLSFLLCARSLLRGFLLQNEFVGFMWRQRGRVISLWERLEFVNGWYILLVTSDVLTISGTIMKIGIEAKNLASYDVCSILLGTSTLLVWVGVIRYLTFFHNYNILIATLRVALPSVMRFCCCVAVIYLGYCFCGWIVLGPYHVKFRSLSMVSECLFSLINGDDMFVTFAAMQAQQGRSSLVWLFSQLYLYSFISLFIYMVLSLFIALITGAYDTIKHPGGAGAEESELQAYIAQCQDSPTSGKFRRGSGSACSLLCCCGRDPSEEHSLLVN
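Cells: TRPML1-DL, 1X Tet inducer, ~16 h at 37 degrees C/5% CO2. Dye: ABD Ca8 no-wash + quencher, 45-90 min RT. Read: 10 s baseline, compound add, 110 s agonist phase; 54-4 EC80 (4uM final), 110 s antagonist phase.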
gsp antag: qHTS for Antagonists of gsp, the Etiologic Mutation Responsible for Fibrous Dysplasia/McCune-Albright Syndrome: qHTS | Potency, µM (doses to about 76.9 µM), for inactives: at the top dose activity change, negative = inhibition, usual class: inhibitors | gsp-mutant cells, cAMP HTRF, 30 min; control for the full effect not named in the record | hit rate 0.4% among 340,000; active = falling curve of any shape with a large fitted effect; inconclusive = falling curve, mostly with a smaller effect; inactive = flat or rising curve; cell line not stated here;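 also: intracellular cAMP measured with PDE inhibitor Ro 20-1724 present during compound exposure; potency is read from the fitted curve at half-maximal effect; % is scaled to controls: 0 for no effect and ±100 for the full control effect; nearly all actives have a fitted effect of over 65% in size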
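Cells in G418 medium, seeded 16-24 h, 37C; buffer exchange to DPBS + 1 mM CaCl2, 0.5 mM MgCl2, 0.05% BSA; cpds in DMSO + […] (300 uM stock), 30 min 37C; HTRF cAMP detection.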
TRPML1 blocker: qHTS for Inhibitors of the Human Mucolipin Transient Receptor Potential 1 (TRPML1); hit rate 0.02% among 390,000; Mucolipin-1 (Homo sapiens), Q9GZU1; activity change, negative = inhibition, % (test concentration not listed); TRPML1-inducible cells, Ca2+ dye fluorescence, FDSS; hits give low values; inhibition of EC80 agonist-evoked calcium signal; AID 624415, 2012; in the data active means activity change below about -50%; inconclusive means about -30% to -50%; inactive means above about -30%;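 also: stimulus is agonist 54-4 at its EC80 concentration; % is scaled to controls: 0 for no effect and ±100 for the full control effect; compound concentration not given in the record; the text of the record puts the active cut at -80%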
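Tet-induced TRPML1-DL cells loaded with Ca8 no-wash calcium dye were read kinetically on FDSS. Compound addition was followed by EC80 agonist 54-4 (4 uM final); inhibition was read over 110 s.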
ClpP mod: qHTS Assay for Activators of ClpP; ATP-dependent Clp protease proteolytic subunit (Bacillus subtilis (strain 168)), P80244; purified B. subtilis ClpP, FRET peptide cleavage, 20 min; Potency, µM (top dose mostly 57.5 µM), without a hit: top-dose activity change, negative = active; hit rate 1.9% among 340,000; active = well fitted falling curve with a large enough effect; inconclusive = small, poorly fitted or top-dose-only effect; inactive = no such curve, though single readings can be large or run the other way; also: potency is read from the fitted curve at half-maximal effect; the source files actives as falling curves though it sought activators and does not explain the sign; nearly all actives have a fitted effect of over 65% in size; many hits overshoot -100%
Target sequence (P80244 whole entry, looked up): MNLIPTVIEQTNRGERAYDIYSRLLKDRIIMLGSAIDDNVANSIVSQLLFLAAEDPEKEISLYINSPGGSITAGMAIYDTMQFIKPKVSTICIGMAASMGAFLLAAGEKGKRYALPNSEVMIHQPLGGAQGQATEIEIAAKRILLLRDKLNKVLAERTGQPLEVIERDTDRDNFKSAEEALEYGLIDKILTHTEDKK
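FRET quenching reversal measured ClpP activation: 10 microg/mL B. subtilis ClpP at pH 8 with the FRET-FV decapeptide, read at 430 nm after 320 nm excitation. The 20-min minus 0-min signal was scaled between DMSO/no-enzyme wells and ADEP (5.8 microM final).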
Numbers without * were called inactive; ? = inconclusive; . = no result given; & = joins results of further samples; [ ] = dose if it differs, or a comment.

Values run as follows: gsp ag	Menin MLL FP FL	TRPML1 agonist	gsp antag	TRPML1 blocker	ClpP mod
CCOC(=O)CC(NC(=O)c1ccco1)c1ccc(C)cc1 (centres undefined)
  -13.2%	1.2	0.2	-8.8%	-3.3	0.7%
CCCCn1c(CNC(C)=O)nc2ccccc21
  -27.3%	1.0	0.1	4.0%	5.7	-1.3%
CC(=O)N1CCc2c(sc3nc(SCC(N)=O)n(-c4ccc(F)c(Cl)c4)c(=O)c23)C1
  .	.	-0.6	.	-11.2	-24.3%
COc1ccc(SCCN2CC[C@@H](NC(=O)OCc3ccccc3)CCC2=O)cc1
  ?	.	0.3&-0.6	-9.4%	24.8	1.4%&-0.5%
NC1=C(Br)C(=O)c2ccccc2C1=O
  -4.1%[15.4 µM]	6.2	2.9	-6.2%	-6.2	.
CCN(CC)C(=O)/C(=C\c1ccc2c(c1)OCO2)NC(=O)c1ccc(Br)cc1
  0.2%[15.4 µM]	3.8	0.0	-9.4%	10.8	1.0%
COc1ccc(Br)cc1CNC(=O)C1CCN(S(=O)(=O)N2CCCCC2)CC1
  -2.2%	0.6	-0.2	-5.3%	4.0	0.8%
COc1cccc(C2=CC(=O)C[C@H](c3ccc(Cl)cc3)C2)c1
  8.2%	.	3.6	-10.6%	36.4	-5.9%
COc1ccc(NC(=O)c2c(C)oc3ccc(O)c(CN4CCN(Cc5ccccc5)CC4)c23)cc1
  .	.	-1.1	.	15.6	-1.8%
CC(C)Oc1cccc(C(=O)Nc2ccc(Br)cc2F)c1
  -7.3%[15.4 µM]	-3.0	3.1	-5.6%	-11.1	-3.3%
CC1(C)OC2OC(C(=O)N/N=C/c3ccccc3F)C3OC(C)(C)OC3C2O1 (centres undefined)
  -5.8%	3.6	0.0	1.3%	-2.7	.
CCc1nc(NCC(C)C)c(C#N)c2c1COC(C)(C)C2
  -0.4%	2.5	-0.9	3.7%	8.8	-13.3%
COc1ccc(C(=O)NC2(C(F)(F)F)C(=O)N(Cc3ccco3)C3=C2C(=O)CC(C)(C)C3)cc1OC (centres undefined)
  ?	-0.2	0.1	6.8%	-6.0	-7.7%
CC(=O)Oc1ccccc1N(C(C)=O)S(=O)(=O)c1cccc([N+](=O)[O-])c1
  7.2%[15.4 µM]	10.1	-0.5	-8.5%	6.6	.
CCO[C@@H]1OC(C(=O)NCc2ccccc2)=C[C@H](C2CCCCC2)[C@H]1CCCO
  -9.2%	1.8	-0.4	11.2µM*	2.6	-2.5%
O=C(CN(C(=O)c1csnn1)c1ccc(F)c(Cl)c1)NCc1ccccc1
  5.9%[15.4 µM]	-0.1	-0.3	.	6.5	.
O=C(CCC1CCCN(C(=O)CC2=CCCCC2)C1)N1CCN(c2ccccn2)CC1 (centres undefined)
  -1.8%[15.4 µM]	3.1	0.2	-19.0%	7.4	.
Cc1cc(C)c2c(CN3CCCCC3)cc(=O)oc2c1
  ?	-10.2	0.3	?	-7.4	.
COCCN(CCOC)S(=O)(=O)c1ccc(C(=O)Nc2nnc(C)o2)cc1
  2.5%	2.5	-0.2	2.5%	3.9	1.9%
O=C(NC(=S)N1CCOCC1)C12CCC3CC(CC(C3)C1)C2
  -120.3%[inhibitor]	-2.3	0.0	-4.2%	3.8	-2.3%
COc1ccc(/C=C/c2nc(C#N)c(N3CCCCCC3)o2)cc1OC
  .	.	2.9	.	-9.0	4.4%
Oc1ccc(C[C@H]2CNCCN2CCc2cccc3ccccc23)cc1
  19.0%	.	0.9	2.3%	2.9	-2.2%
O=C(NNC(=S)Nc1ccccc1)c1cccc(S(=O)(=O)N2CCOCC2)c1
  1.9%[15.4 µM]	-0.2	-0.1	-3.5%	11.6	-0.5%
COc1cc(NC(=O)C2CCCN2S(=O)(=O)c2cccc3cccnc23)cc(OC)c1OC (centres undefined)
  ?	-0.1	-0.2	-5.5%	-6.6	2.5%
Cc1cc(-n2c(SCC(=O)Nc3ccc(F)c(F)c3)nc3n[nH]c(C)c3c2=N)ccc1Cl
  ?	-1.5	1.7	0.7%	17.2	2.7%
CCCCc1c(O)n2c(nc3ccccc32)[nH]c1=O
  -9.8%	-1.7	-1.0	-1.3%	-11.4	-21.9%
CCOc1ccc(NS(=O)(=O)c2c(C)nc3sccn3c2=O)cc1
  14.0%	3.1	0.0	2.8%	0.4	?
COc1ccccc1N(CC(=O)Nc1ccc(Cc2ccncc2)cc1)S(=O)(=O)c1ccccc1
  7.7%[15.4 µM]	1.4	-0.2	?	42.3	.
Cc1cc(C)n(-c2ccc(C(=O)N3CCN(S(=O)(=O)c4ccc(Br)cc4Cl)CC3)cc2)n1
  -15.7%	.	0.4	.	25.8	-2.4%
CCOC(=O)C1(P(=O)(c2ccccc2)c2ccccc2)CCC1
  18.7%	-0.9	0.6	0.3%	-10.0	-0.2%
CCN(CC(=O)Nc1c(F)cccc1F)C(=O)C1CCCN(C(=O)c2ccc(Cl)cc2)C1 (centres undefined)
  -5.4%[15.4 µM]	.	-0.3	3.4%	2.3	0.4%
COCCNC(=O)CN(Cc1cccs1)C(=O)CCC(=O)Nc1nccs1
  -13.9%[15.4 µM]	-5.7	1.0	7.7%	4.0	.
Cc1ccc(S(=O)(=O)N(C)C[C@H]2OCCCC[C@@H](C)Oc3ccc(NC(=O)Cc4ccccc4)cc3C(=O)N([C@H](C)CO)C[C@@H]2C)cc1
  3.8%	.	-0.5	.	-0.3	-1.4%
C(=N\N(Cc1ccccc1)c1ccccc1)/c1ccco1
  -7.6%	3.6	1.9	-0.2%	7.3	.
CC(=O)NCc1cc(-c2nn(C)c(=O)c3ccccc23)ccc1C
  8.6%	2.3	0.0	-7.9%	9.0	-0.6%
O=S(=O)(Nc1nc(-c2sccc2Cl)cs1)c1cc(Cl)ccc1Cl
  -19.4%	1.2	1.0	?	-3.4	0.3%
Cc1cccc(C(=O)Nc2nc(-c3nnn(-c4cc(C)ccc4C)c3C)ns2)c1
  .	.	?	.	-11.4	-9.7%
CS(=O)(=O)c1ccc(C(=O)NC(Cc2ccccc2)c2ccccc2)cc1 (centres undefined)
  -26.9%[15.4 µM]	-1.8	0.4	-9.0%	8.4	.
O=C(Nc1cccc(C(F)(F)F)c1)OCc1ccncc1
  -2.0%[15.4 µM]	.	-0.4	0.7%	-0.5	-1.6%
CCOCCCNC(=O)c1c[nH]c2ccc(OCC)cc2c1=O
  -15.6%	-0.7	.	4.7%	.	3.5%
O=S(=O)(c1ccc(Cl)cc1)N1CCCC1c1nc(-c2ccc(Cl)cc2)no1 (centres undefined)
  17.1%	4.1	-0.1	-10.3%	58.0	-1.0%
Cc1cc(C(=O)N/N=C/c2cc([N+](=O)[O-])cc(C)c2O)n[nH]1
  -18.1%	4.7	0.6	-9.9%	13.9	1.3%
CCC(=O)Nc1ccc(C=C(C(C)=O)C(C)=O)cc1
  -5.5%	1.1	0.0	-1.2%	-8.6	-1.7%
COc1ccc(CCNS(=O)(=O)c2ccc(N3CCCCS3(=O)=O)cc2)cc1
  .	.	-0.2	.	-2.5	-6.6%
CC(=O)Nc1ccc(N=Nc2ccccc2)cc1
  -6.5%	-2.0	0.5	14.8%	16.0	-4.6%
O=C(Nc1ccccc1Cl)Nc1ccccc1Cl
  -11.3%[15.4 µM]	0.9	0.9	13.1%	-1.0	.
Cn1c(-c2ccc(F)cc2)cnc1NCc1ccc(F)cc1
  -7.7%	-0.1	2.4	2.1%	6.6	-2.9%
O=S1(=O)CCN2N=C(C3CC3)SC2=N1
  15.9%[15.4 µM]	0.8	-0.3	.	4.8	.
CCOc1ccc(OCC)c(S(=O)(=O)N2CCCCC2)c1
  3.5%	4.1	0.3	-14.8%	-5.0	-0.9%
COc1ccc(/C=C2\N=C(SC)N(c3ccccc3OC)C2=O)cc1
  -19.0%	0.0	0.3	?	-12.9	-1.1%
CN1C[C@@H]2[C@@H]3C(=O)N(Cc4ccccc4)C(=O)[C@@H]3[C@](C)(C1=O)N2C(=O)c1ccc(F)cc1
  ?	.	-1.0	4.2%	-15.0	0.4%
Cc1ccc(N2CCCn3c2cc(C)c(C#N)c3=O)cc1C
  ?	1.2	-0.8	5.3%	-1.8	-25.2%
COc1cc(NC(=O)c2ccc(F)cc2)ccc1NC(=O)c1cc2ccccc2o1
  27.4%	-4.8	1.0	1.6%	-0.4	-1.5%
Cc1nc2c3ccccc3nc(NNC(=O)CCC(=O)N3CCN(c4cccc(Cl)c4)CC3)n2n1
  .	.	0.9	.	-0.3	-1.1%
O=c1[nH]c(SCc2cccc(Cl)c2)nc2ccccc12
  0.2%	-0.2	2.1	9.6%	-7.4	1.4%
CCCCn1c(NCc2cc(C)ccc2O)nc2ccccc21
  -43.1%[inhibitor]	.	0.0	.	-4.2	0.1%
COc1ccc(N2CC(O)=C(c3nc4ccccc4s3)C2=N)cc1
  27.6%	4.6	-0.2	16.3%	-2.9	-24.3%
Cc1cc(C)cc(N2CC(C)(C)C2=O)c1
  7.3%[15.4 µM]	-2.2	0.4	7.6%	11.6	.
CCOC(=O)c1ccc(N2C(=O)CC(C(=O)OC)=C2C)cc1
  0.0%	5.2	-0.2	-13.2%	17.6	0.2%
CC(C)c1nc2sc3c(=O)[nH]cnc3c2c2c1CCC2
  4.5%[15.4 µM]	9.5	-0.9	6.5%	3.7	-0.1%
O=C(O)C1CCCCC1C(=O)N1CCN(S(=O)(=O)c2ccc(F)cc2)CC1 (centres undefined)
  13.0%[15.4 µM]	.	1.5	6.5%	18.8	2.9%
CCCCOc1ccc(S(=O)(=O)Nc2ccc(-c3ccc(N4CCC(C)CC4)nn3)cc2)cc1
  .	.	-0.6	.	10.5	-1.3%
COc1ccc(C2CC(=O)c3cnc(NC(=O)c4ccccc4)nc3C2)c(OC)c1 (centres undefined)
  -33.8%[inhibitor]	0.2	-0.8	5.5%	-5.1	-3.2%

Compounds were not picked by outcome; 2.1% or so of the library scored in one or more.
